MT1-MMP act inh: blockers of MT1-MMP proenzyme processing, primary screen, HT1080 RFP-PRO-GFP cells, GFP/RFP fluorescence; Matrix metalloproteinase-14 (Homo sapiens), P50281; GFP/RFP ratio change, % at 20 µM; AID 651647, 2012; GFP/RFP ratio fluorescence, overnight; percent of plate control window, DMSO zero; 360,000 compounds, 0.061% hits;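 active = GFP/RFP ratio change of at least 30% with cell ATP level not reduced by more than half and red fluorescence within 50% of control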; note: strong numbers were not always called active
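Read-out: GFP/RFP fluorescence ratio; Test system: RFP-PRO-GFP reporter HT1080 cells; Compound dosing: single-point 20 µM compound, 1% DMSO; Times: overnight compound exposure at 37 °C.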
eIF4H FP inh: human eIF4H binding inhibitors, primary screen, translation initiation inhibitor project, biochemical, uHTS, fluorescence polarization | eIF4H fluorescence polarization binding assay | inhibition, % at 35 µM | 290,000 compounds, 0.94% hits;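 active = 50% or more with normal probe brightness, or confirmed in later tests; inconclusive = above 50% with abnormal brightness, or retests that disagree; inactive = below 50% or failed in later tests; about a fifth of its hits are not listed in these tables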;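 note: calls also rest on retests at 20 µM and on dose response follow-up; 0% = protein and probe with vehicle and 100% = probe without protein; strong numbers were not always called active; many hits fall short of the cut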
Env fusion inh: inhibitors of HIV-1 Env-driven cell-cell fusion, primary screen, HeLa-JRFL effector, CEM21 target cells, luciferase; 360,000 compounds, 1.1% hits; inhibition, % at 12.3 µM;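 active = mean replicate inhibition score of at least 50 and every replicate individually at or above 50; inconclusive = only one of the two criteria met; inactive = mean below 50 and not all replicates reaching 50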;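 note: 0% = plate neutral controls and 100% = maraviroc near 300 nM; one replicate is shown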
PABP FP inh: PABP poly(A) RNA binding inhibitors, primary screen, biochemical, fluorescence polarization, uHTS; inhibition, % at 35 µM; 290,000 compounds, 1% hits;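 active = 50% or more with normal probe brightness, or confirmed in later tests; inconclusive = above 50% with abnormal brightness, or retests that disagree; inactive = below 50% or failed in later tests; about a fifth of its hits are not listed in these tables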;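 note: calls also rest on retests at 20 µM and on dose response follow-up; controls were probe without protein and protein plus probe with vehicle; some compounds called inactive have numbers as strong as hits; many hits fall short of the cut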
Target sequence (P11940 whole entry, looked up): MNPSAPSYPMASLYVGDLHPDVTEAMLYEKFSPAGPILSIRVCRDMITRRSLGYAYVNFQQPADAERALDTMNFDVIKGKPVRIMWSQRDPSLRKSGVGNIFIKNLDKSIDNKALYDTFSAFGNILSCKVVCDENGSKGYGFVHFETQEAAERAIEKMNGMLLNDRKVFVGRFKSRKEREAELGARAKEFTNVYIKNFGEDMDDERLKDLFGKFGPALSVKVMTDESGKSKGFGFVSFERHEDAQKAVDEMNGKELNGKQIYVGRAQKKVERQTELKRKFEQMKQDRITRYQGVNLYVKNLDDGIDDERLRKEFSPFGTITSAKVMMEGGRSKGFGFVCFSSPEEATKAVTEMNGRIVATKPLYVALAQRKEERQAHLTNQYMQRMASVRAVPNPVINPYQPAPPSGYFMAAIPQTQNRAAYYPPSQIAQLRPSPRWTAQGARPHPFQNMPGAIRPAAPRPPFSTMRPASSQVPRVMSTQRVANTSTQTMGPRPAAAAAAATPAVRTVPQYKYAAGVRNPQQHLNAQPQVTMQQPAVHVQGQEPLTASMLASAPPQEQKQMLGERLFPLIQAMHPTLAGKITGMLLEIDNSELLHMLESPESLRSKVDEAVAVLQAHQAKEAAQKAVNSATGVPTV
Yeast UUG start: modulators of yeast start codon fidelity, primary screen, whole organism, S. cerevisiae, single point, plate reader. AID 602363, 2012. activity score, % at 18.7 µM. 350,000 compounds, 0.13% hits. S. cerevisiae UUG-firefly luciferase reporter, luminescence/redox ratio;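 active = replicate mean at a twofold rise or more, about +100% in these data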;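 note: firefly luciferase made from a UUG start codon reports start codon fidelity; reporter light over untreated wells divided by growth signal over untreated wells; some hits fall short of that in this replicate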
Rce1 inh: yeast Rce1p protease inhibitors, primary screen, biochemical, fluorescence, cell-free homogeneous | calls only | AID 2563, 2010 | CAAX prenyl protease 2 (Saccharomyces cerevisiae (strain ATCC 204508 / S288c)), Q03530 | yeast membranes, quenched prenylated peptide cleavage fluorescence | 290,000 compounds, 0.27% hits;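 active = fall in fluorescence gain of 50% or more versus controls, with final raw signal at or below 3038400; inconclusive = same 50% fall but final raw signal above 3038400; inactive = fall in fluorescence gain under 50%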;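 note: plate controls were neutral control wells for no effect and wells lacking membranes for full effect; tested at 10 µM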
CSC inhib: cancer stem cell viability inhibitors, primary screen, luminescence | cancer stem cell-like cells viability | inhibition, % at 7.5 µM | 300,000 compounds, 1.1% hits | AID 2717, 2010;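 active = mean at 75% or more and at least half the replicates too; inconclusive = mean and replicates disagree; tested in HMLE shEcad cells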;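 note: 0% = median of negative and 100% = median of positive control wells; the first replicate is given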
eIF4H FP inh retest: also measured in eIF4H FP inh; calls as there; inhibition, %; compound at 20 µM; confirmation average;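 mean of two retest wells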
PABP FP inh retest: recorded beside PABP FP inh, whose call it bears; inhibition, %; compound at 20 µM; confirmation repeats;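 mean of two retest wells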
MT1-MMP act inh RFP: recorded beside MT1-MMP act inh, whose call it bears; RFP signal change, %; measured here: RFP expression control read;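 0 = vehicle wells; hits needed this value within 50% of zero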
* = called active by the depositor; i = inactive; u = inconclusive; x = no result given. These rows are one share of the data, so the mix of outcomes need not match the whole.

SMILES	MT1-MMP act inh	MT1-MMP act inh RFP	eIF4H FP inh	Env fusion inh	PABP FP inh	Yeast UUG start	Rce1 inh	CSC inhib	others
CC(C)(C)OC(=O)N(CCc1ccccc1)Cc1ccccc1OCc1cccc(NC(=O)/C=C/c2ccccc2)c1	9	-8	x	9	x	3	x	x
O=C(Nc1ccc(Oc2ccccc2)nc1)C1CCN(Cc2cccc(F)c2)CC1	3	-10	5	16	2	6	i	8
O=C(Nc1ccccc1Br)c1ccc(OC(=S)N2CCOCC2)cc1	0	-5	-1	-16	-4	x	i	1
Cc1ccccc1CC(=O)N1CCC(CCC(=O)NC2CC2)CC1	1	2	x	6	x	-16	x	x
C=CCOC(=O)C1=C(C)NC(=O)NC1c1cn(-c2ccccc2)nc1-c1cccs1 (stereo not drawn)	2	-1	7	x	5	-13	i	-3
O=c1c(C/C=C/c2ccccc2)c(O)ccn1CCc1c[nH]c2ccccc12	-5	-3	-1	8	-9	-28	i	5
COc1ccc(CCNc2nc(-c3ccccn3)cs2)cc1OC	5	-3	-1	-59	1	x	i	-6
COC(=O)C(NC(=O)C(CC(C)C)NC(=O)C1CCC(C)CC1)C(C)C (stereo not drawn)	3	7	0	-9	-4	-9	x	-3
OCCNCc1cc(Br)ccc1OCc1ccccc1	4	4	13	0	23	-8	i	-3
CCc1nc2c(OCc3ccccc3)cccn2c1N(C)C(=O)c1ccc2c(c1)OCO2	1	2	x	-1	x	-2	x	x
CCNS(=O)(=O)c1ccc(CCC(=O)N2CCC(C)CC2)cc1	2	0	-5	10	-6	-6	i	x
O=c1c2cc(NC(=S)N3CCCC3)ccc2nc2n1CCCCC2	-6	-2	-6	-17	0	x	i	-6
O=C(c1ccc([N+](=O)[O-])cc1)N(Cc1ccccc1)Cc1ccccc1	-5	-7	x	-12	x	-1	x	x
O=C1COc2ccc(C(=O)COC(=O)/C=C/c3cccc(F)c3)cc2N1	-2	-2	-7	18	-3	-24	i	2
O=c1cc(CNc2ccc(Br)cc2)nc2sccn12	-17	4	4	x	-8	-18	i	-6
O=C(NCc1ccccc1)c1ccco1	5	7	-4	x	27	-13	i	-22
O=C(c1ccc(OC2CCN(C(=O)c3cccnc3)CC2)cc1)N1CCCCCC1	-2	-7	-3	17	-2	x	i	-1
O=C(O)c1ccc(C2CCCCC2)cn1	10	9	-1	-42	-2	-62	i	5
CC(C)N(C(=O)COC(=O)CNS(=O)(=O)c1ccccc1F)c1ccccc1	2	-1	4	0	22	x	i	6
COc1ccc(CNC(=O)[C@@H](NC(=O)C2CCN(C(=O)[C@@H](N)CCSC)CC2)C(C)C)cc1	-2	3	-4	x	2	-23	x	-8
COC(=O)Cn1c2ccc(OC)cc2c2nc3ccccc3nc21	-15	8	u	-56	u	-10	i	-11
C[C@H]1CN([C@@H](C)CO)C(=O)Cc2cc(NC(=O)CCC(F)(F)F)ccc2O[C@H]1CN(C)Cc1ccc(C(F)(F)F)cc1	1	-1	x	-23	x	-6	x	2
Cc1cccc(OC(=O)c2cn(C)nc2C(F)(F)F)c1C	3	-2	-2	x	0	-1	i	-12
Cc1nc(-c2c(C(=O)NNC(=O)Nc3c(C)cccc3C)noc2C)cs1	5	2	-4	-15	-3	x	i	x
S=c1sc2c(N3CCOCC3)ncnc2n1-c1ccccc1	-1	0	-9	-48	1	-2	i	x
c1ccc(NN=C(c2ccccc2)c2cccs2)cc1	3	2	x	6	x	2	x	x
CCN(/N=C/c1cccs1)c1cc(=O)n(C)c(=O)[nH]1	2	3	-3	x	0	-14	i	0
O=C(COC(=O)C12CC3CC(CC(C3)C1)C2)Nc1ncc(Cl)cc1Cl	-4	0	4	20	15	-13	i	-11
O=C(Nc1ccccc1)Nc1nnc(/C=C/c2ccccc2Cl)s1	1	3	-6	-2	-4	1	i	9
Cc1cccc(NC(=O)CSCC(=O)Nc2cc(C(F)(F)F)ccc2N2CCOCC2)c1	-6	-6	x	69*	x	-4	x	x
COc1cccc(N(CC(=O)Nc2ccc3c(c2)OCO3)S(=O)(=O)c2ccccc2)c1	4	-3	2	-58	-5	-7	i	6
COc1ccc(CC(=O)Nc2nnc(C)s2)cc1	3	3	1	3	-8	-18	i	6
Cc1ccc(N2CCN(C(=S)Nc3ccccc3)CC2)cc1	2	-1	5	9	4	x	i	-4
CCOC(=O)C1CCN(C(=O)c2ccc3c(c2)NC(=O)/C(=C\c2ccc(C)cc2)S3)CC1	-7	-3	u	-3	46	-22	i	4
Cc1cc(CNC(=O)C2CCC(=O)N(Cc3cccc(C(F)(F)F)c3)C2)no1 (stereo not drawn)	-3	2	51	x	-2	-9	i	2	eIF4H FP inh retest=5;PABP FP inh retest=2
Cc1cccc(NC(=O)C(C)n2cc([N+](=O)[O-])cn2)n1 (stereo not drawn)	3	5	4	10	2	x	i	-16
CC(=O)c1cccc(OCC(O)CNCCOc2ccc(C)cc2)c1 (stereo not drawn)	-1	2	7	14	-6	-11	x	-14
CCCCc1ccc(S(=O)(=O)NC2CCS(=O)(=O)C2)cc1 (stereo not drawn)	-1	-18	-9	2	6	x	i	4
O=C(CSc1nccn1-c1ccccc1)NCc1ccc2c(c1)OCO2	2	-2	0	x	5	-5	i	-14
COC(/C(=N/O)c1ccc(Cl)cc1)c1ccccc1 (stereo not drawn)	-1	-22	-9	17	-2	-4	i	6
COc1ccc(S(=O)(=O)N(C)C[C@H]2Oc3ncc(C#CC4(O)CCCC4)cc3C(=O)N([C@@H](C)CO)C[C@@H]2C)cc1	-2	3	x	14	x	5	x	x
O=C(CSc1nnc(-c2ccccn2)n1Cc1ccccc1)N1CCOCC1	-1	1	-3	-12	7	-14	i	-14
CCN(CC)CCC(c1cc(OC)c(OC)c(OC)c1)c1c(OC)cc(OC)c2c(C)cc(=O)oc12 (stereo not drawn)	-2	-4	0	-27	-8	-4	i	18
C(=N\Nc1nc(Nc2ccccc2)nc(N2CCOCC2)n1)/c1c[nH]c2ccccc12	x	x	-2	70*	2	x	i	32
Cc1cc(C(=O)COC(=O)c2ccc(NC(=O)CC#N)cc2)c(C)n1CC(F)(F)F	-2	2	x	-29	x	-19	x	x
C=CCn1c(C)cc(-c2csc(NC(=O)CCc3nc4ccccc4c(=O)[nH]3)n2)c1C	0	4	x	11	x	-8	i	-10
CC(C)CCN1CCN(Cc2cccc(C(F)(F)F)c2)CC1CCO (stereo not drawn)	6	-2	-15	1	-5	x	i	55
O=C(OCc1cc(=O)oc2cc(O)ccc12)c1cc(S(=O)(=O)N2CCOCC2)ccc1F	-8	2	x	2	x	0	i	6
O=S(=O)(NCCCN1CCOCC1)c1ccc2c(c1)OCCO2	2	3	2	-5	-16	x	x	-5
CC(CC(=O)Nc1ccc(F)cc1F)S(=O)(=O)c1ccc2c(c1)NC(=O)CO2 (stereo not drawn)	-2	1	-2	3	2	-16	i	-2
Cc1ccc(CN(C(=O)C(F)(F)F)C(C(=O)NC2CCCCC2)c2ccco2)cc1 (stereo not drawn)	-25	-18	-11	-2	20	-4	i	-3
Cc1ccc(CC(=O)c2ccc(Cl)cc2)cc1	3	3	0	-18	0	-20	i	-7
CCOc1c(Br)ccc2c1sc1nc[nH]c(=O)c12	-7	-3	2	x	3	-38	i	-2
Cc1ccc(C(=O)OCC(=O)N(C)c2c(N)n(Cc3ccccc3)c(=O)[nH]c2=O)s1	-2	0	x	x	x	-26	i	-2
Nc1c(C(=O)NCCN2CCOCC2)c2nc3ccccc3nc2n1CCc1ccccc1F	-12	-1	-13	13	-4	-3	i	46
Cc1cc2cc(OCC(=O)O)ccc2n1C	-48	1	96	-15	u	-10	i	-1	eIF4H FP inh retest=-11
COc1ccc(NCC(=O)N2CCCC2)cc1Cl	0	0	-9	-2	2	x	i	-12
O=C(CNC(=O)c1ccccc1)NCCCSc1ccccc1	1	-2	x	-12	x	4	x	5
CC(=O)Nc1cc2c(cc1Cl)-c1ccccc1C2O (stereo not drawn)	1	0	x	-8	x	-2	x	x
CN1/C(=C\C(=O)c2cccc([N+](=O)[O-])c2)Sc2ccccc21	2	4	11	-45	-2	-9	x	-15

Random excerpt: 5 records from the list.
SMILES	MT1-MMP act inh	MT1-MMP act inh RFP	eIF4H FP inh	Env fusion inh	PABP FP inh	Yeast UUG start	Rce1 inh	CSC inhib	others
CC(C)(C)OC(=O)N(CCc1ccccc1)Cc1ccccc1OCc1cccc(NC(=O)/C=C/c2ccccc2)c1	9	-8	x	9	x	3	x	x
CC(=O)Nc1cc2c(cc1Cl)-c1ccccc1C2O (stereo not drawn)	1	0	x	-8	x	-2	x	x
Nc1c(C(=O)NCCN2CCOCC2)c2nc3ccccc3nc2n1CCc1ccccc1F	-12	-1	-13	13	-4	-3	i	46
C=CCOC(=O)C1=C(C)NC(=O)NC1c1cn(-c2ccccc2)nc1-c1cccs1 (stereo not drawn)	2	-1	7	x	5	-13	i	-3
O=C(CSc1nccn1-c1ccccc1)NCc1ccc2c(c1)OCO2	2	-2	0	x	5	-5	i	-14

Further entries.
SMILES	MT1-MMP act inh	MT1-MMP act inh RFP	eIF4H FP inh	Env fusion inh	PABP FP inh	Yeast UUG start	Rce1 inh	CSC inhib	others
O=C(O)c1ccc(Nc2ccc3nonc3c2[N+](=O)[O-])cc1	1	2	18	10	18	-6	i	-17
CCOC(=O)c1cnc(-c2ccccc2)nc1Oc1ccc(Cl)c(Cl)c1	-3	3	-8	x	6	-22	i	0
CCOC(=O)C1CCN(S(=O)(=O)c2cccc(-c3cn4cccc(C)c4n3)c2)CC1	7	-4	-2	43	14	-3	x	6
CCN(CC)S(=O)(=O)c1ccc2oc(SCC(=O)NCc3ccccc3)nc2c1	11	-5	5	22	2	-4	i	12
CC(=O)Nc1ccc2nc(NC(=O)c3ccco3)sc2c1	-3	4	-4	-15	-4	-12	i	5
CC(C)(C)NC(=O)COC(=O)C1c2ccccc2Oc2ccccc21	-1	6	-2	12	9	-2	i	-11
CCOC(=O)c1cnn(-c2c(Cc3ccccc3)c(C)nc3c(-c4ccccc4)c(C)nn23)c1N	-8	-2	2	-81	-3	-16	i	x
COc1ccc(Nc2nc3ccccc3c(=O)[nH]2)cc1	5	4	-9	-3	-1	-15	i	4
Cc1ccccc1NS(=O)(=O)c1cc(C(=O)Nc2ccccc2-c2ccccc2)ccc1Cl	-5	-11	-7	-2	-6	x	i	24
COc1ccc(CCNC(=O)CSCc2ccc([N+](=O)[O-])cc2)cc1	0	1	4	17	0	-2	i	-16
O=C(CN1CCOCC1)NN1CC(=O)N(c2ccc(Cl)cc2)CC1=O	-2	1	6	-2	-3	x	i	x
CCNC(=O)COC(=O)c1ccc(-n2nc(C)cc2C)cc1	1	-2	1	-3	7	-6	i	-8
OCCNC(=S)NCCc1ccccc1	5	7	20	5	9	x	i	4

By substructure, the compounds so far with a tert-butyl group.
SMILES	MT1-MMP act inh	MT1-MMP act inh RFP	eIF4H FP inh	Env fusion inh	PABP FP inh	Yeast UUG start	Rce1 inh	CSC inhib	others
CC(C)(C)OC(=O)N(CCc1ccccc1)Cc1ccccc1OCc1cccc(NC(=O)/C=C/c2ccccc2)c1	9	-8	x	9	x	3	x	x
CC(C)(C)NC(=O)COC(=O)C1c2ccccc2Oc2ccccc21	-1	6	-2	12	9	-2	i	-11

Bioassay records (PubChem BioAssay)
